VACV E9 pol inh: vaccinia E9 polymerase processive synthesis inhibitors, primary screen, biochemical, absorbance; in vitro processive DNA synthesis, absorbance read-out; stronger effect = lower value; some inactives read as strong as hits; AID 493162, 2011; 46,000 compounds, 0.94% hits; normalized absorbance, % (concentration not given with the values); Vaccinia virus DNA polymerase (E9) processive complex;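 active = replicate mean up to 90% and picked by the depositor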;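 note: 100% = median of the test wells of a plate; 100 nL library stock went into each well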
Starred values were filed as active, the others as inactive; & = joins results of further samples. This is a subset. The share of hits here may be higher or lower than overall.

A first look, 27 compounds:
SMILES	VACV E9 pol inh
NC1=NC(=O)CC(C(=O)Nc2ccc(Br)cc2)S1 (stereo unspecified)	100
CC1OS(=O)OC1(c1ccccc1)c1ccccc1 (stereo unspecified)	99
O=C(Cc1ccccc1)Nc1ccc(-c2cn3cccnc3n2)cc1	100
Cc1ccc(C(=O)COC(=O)Cc2ccccc2)cc1	93
COc1cc2c(cc1OC)C1N(CC2)C(C(=O)c2cccs2)=NN1c1ccccc1 (stereo unspecified)	99
CN(C(=O)COC(=O)c1cnc(Cl)c(Cl)c1)c1ccccc1	101
CCc1nc(N)c(C#N)c(-c2ccccc2)c1C	108
CCCN(CC1CC1)C(=S)Nc1cccc(C)c1C	100
CC(C)c1ccc(NC(=S)N2CCCC(c3ccc(F)cc3)=N2)cc1	101
Cc1nc(C(F)(F)F)ccc1-c1nnc(SCCCN2C(=O)c3ccccc3C2=O)o1	111
CCCCCCCCCCCCC/C=C/[C@@H](O)[C@@H](N)CO	100
CC(=O)OCC(=O)C1CCC2C3CC=C4CC(O)CCC4(C)C3CCC12C (stereo unspecified)	114
COC(=O)C1=CN(C23CC4CC(CC(C4)C2)C3)C=C(C(=O)OC)C1c1cccc(OC)c1	100
O=C(O)/C=C/C(=O)N1CCCC(C(F)(F)F)C1 (stereo unspecified)	90
CC1(C)NCS[C@H]1C(=O)O	103
O=C(CC1N=C2c3ccccc3N=C(SCc3ccccc3F)N2C1=O)NC1CCCCC1 (stereo unspecified)	98
CC(CCc1ccccc1)NC(=O)CCn1c(=O)sc2ccccc21 (stereo unspecified)	100
CCCN1CC2(COC)CC[C@H](OC)[C@@]34CC[C@H](COC)[C@@H](O)C[C@@](C)(O)C(O)([C@@H](OC)[C@H]23)[C@H]14	100
CC(=O)Nc1ccc(NC(=O)C(Cc2ccccc2)NC(=O)C2CCCCC2)cc1 (stereo unspecified)	86
Cc1ccc2nc(-c3ccc(S(=O)(=O)N(C)C)cc3)cn2c1	101
Cc1ccc(S(=O)(=O)Nc2ccc(-c3csc(-c4ccccc4)n3)cc2)cc1	100
O=C(NCCC1=CCCCC1)c1cnsn1	101
O=C(NC(N1CCOCC1)(C(F)(F)F)C(F)(F)F)c1ccccc1	100
CCCNC(=O)c1ccc(OCC)cc1	102
N#Cc1c(-c2ccccc2)oc2c1C(=O)c1ccccc1C2=O	100
S=c1nc[nH]c2c1sc1nc(N3CCOCC3)c3c(c12)CCCC3	101
CCN(Cc1ccccc1)C(=O)CSc1nc2ccccc2c2nc3ccccc3n12	99

All compounds of this part, previewed entries included:
SMILES	VACV E9 pol inh
NC1=NC(=O)CC(C(=O)Nc2ccc(Br)cc2)S1 (stereo unspecified)	100
CC1OS(=O)OC1(c1ccccc1)c1ccccc1 (stereo unspecified)	99
O=C(Cc1ccccc1)Nc1ccc(-c2cn3cccnc3n2)cc1	100
Cc1ccc(C(=O)COC(=O)Cc2ccccc2)cc1	93
COc1cc2c(cc1OC)C1N(CC2)C(C(=O)c2cccs2)=NN1c1ccccc1 (stereo unspecified)	99
CN(C(=O)COC(=O)c1cnc(Cl)c(Cl)c1)c1ccccc1	101
CCc1nc(N)c(C#N)c(-c2ccccc2)c1C	108
CCCN(CC1CC1)C(=S)Nc1cccc(C)c1C	100
CC(C)c1ccc(NC(=S)N2CCCC(c3ccc(F)cc3)=N2)cc1	101
Cc1nc(C(F)(F)F)ccc1-c1nnc(SCCCN2C(=O)c3ccccc3C2=O)o1	111
CCCCCCCCCCCCC/C=C/[C@@H](O)[C@@H](N)CO	100
CC(=O)OCC(=O)C1CCC2C3CC=C4CC(O)CCC4(C)C3CCC12C (stereo unspecified)	114
COC(=O)C1=CN(C23CC4CC(CC(C4)C2)C3)C=C(C(=O)OC)C1c1cccc(OC)c1	100
O=C(O)/C=C/C(=O)N1CCCC(C(F)(F)F)C1 (stereo unspecified)	90
CC1(C)NCS[C@H]1C(=O)O	103
O=C(CC1N=C2c3ccccc3N=C(SCc3ccccc3F)N2C1=O)NC1CCCCC1 (stereo unspecified)	98
CC(CCc1ccccc1)NC(=O)CCn1c(=O)sc2ccccc21 (stereo unspecified)	100
CCCN1CC2(COC)CC[C@H](OC)[C@@]34CC[C@H](COC)[C@@H](O)C[C@@](C)(O)C(O)([C@@H](OC)[C@H]23)[C@H]14	100
CC(=O)Nc1ccc(NC(=O)C(Cc2ccccc2)NC(=O)C2CCCCC2)cc1 (stereo unspecified)	86
Cc1ccc2nc(-c3ccc(S(=O)(=O)N(C)C)cc3)cn2c1	101
Cc1ccc(S(=O)(=O)Nc2ccc(-c3csc(-c4ccccc4)n3)cc2)cc1	100
O=C(NCCC1=CCCCC1)c1cnsn1	101
O=C(NC(N1CCOCC1)(C(F)(F)F)C(F)(F)F)c1ccccc1	100
CCCNC(=O)c1ccc(OCC)cc1	102
N#Cc1c(-c2ccccc2)oc2c1C(=O)c1ccccc1C2=O	100
S=c1nc[nH]c2c1sc1nc(N3CCOCC3)c3c(c12)CCCC3	101
CCN(Cc1ccccc1)C(=O)CSc1nc2ccccc2c2nc3ccccc3n12	99
O=C(COC(=O)c1ccc(Oc2ccccc2)cc1)NCc1ccccc1	98
CN(C)CCC(O)c1ccccc1 (stereo unspecified)	101
CCc1ccc(N(CC)c2ncnc3nc[nH]c23)cc1	100
O=S(=O)(N=S(N1CCCCC1)N1CCCCC1)c1ccccc1	94
N#CC1(c2ccccc2)CCCN1C(=O)c1ccc(Br)o1 (stereo unspecified)	99
O=C(NCc1cccc2ccccc12)C12CC3CC(CC(C3)C1)C2	101
CC(NC(=O)C(C)(C)C)C1CC2CCC1C2 (stereo unspecified)	84
O=S(=O)(NCCSc1ccccc1)c1ccc2c(c1)OCCO2	100
CC(C)c1ccc(NC(=O)c2cc(F)cc3c2OCOC3)cc1	102
CN1CCC[C@@H]1CCO[C@](C)(c1ccccc1)c1ccc(Cl)cc1	102
Fc1ccc(-c2[nH]ncc2CN2CCN(Cc3ccccc3)CC2)cc1	67
COc1ccc2c(c1)C(C)=CC(C)(C)N2C(=O)CN1C(=O)CCC1=O	91
COc1ccc(/C=C2\SC(=S)N(c3ccc(O)cc3)C2=O)cc1	100
Cc1ccc(/C=C2/Sc3ccc(C(=O)N4CCN(c5ccccc5F)CC4)cc3NC2=O)cc1	91
c1ccc(-c2nnn3c2nc(N2CCCC2)c2ccccc23)cc1	97
O=c1c2ccccc2nc(CNc2ccccc2)n1-c1ccccc1	99
CN(C)C(=S)SCN1CCCCCC1=O	94
CCOC(=O)N1CCc2[nH]c3ccccc3c2C1	101
O=C(O)CCCC(=O)c1c[nH]c2ccccc12	101
COc1ccc(-c2ccnc3c(C#N)cnn23)cc1	101
Cn1c(=O)c2c(nc(SCc3ccc(F)cc3)n2C)n(C)c1=O	100
CCCNC(=O)c1ccc(-n2c(C)cc3c2CCCC3)cc1	89
CC1(C)C(C(=O)Nc2ccccc2C(F)(F)F)C1(C)C	100
[O-]c1n[n+](-c2ccc(Cl)cc2)cc2ccccc12	100
COc1ccc(-c2cn3c4ccccc4n(N)c3n2)cc1OC	100
C/C(=N\c1nnc(Sc2nc3cc(Cl)ccc3s2)s1)N(C)C	101
CCc1ccccc1N(CC(=O)N1CCC(Cc2ccccc2)CC1)S(C)(=O)=O	98
O=C(COC(=O)C1CC1)Nc1ccc(I)cc1	104
Cc1cc(NC(=O)Nc2ccccc2)n(-c2ccccc2)n1	92
OCCNc1ccc2ccccc2n1	100
COc1ccc2c(c1)c(CC(=O)O)c(C)n2C(=O)c1ccc(Cl)cc1	100&101
COc1cc2c3c(c1OC)C1(C=CC(=O)C=C1)CC3N(C(=O)c1ccccc1)CC2 (stereo unspecified)	97
CN(C)c1ccc(/C=C2\SC(=O)NC2=O)cc1	102

(further entries)
SMILES	VACV E9 pol inh
CCOc1ccc(CCNC(=O)c2cn(CC(C)C)c(=O)c3c2c2ccccc2n3C)cc1OCC	99
O=C(Nc1ccc(C#Cc2ccccc2)cc1)C(F)(F)F	103
O=C1CCCC(O)=C1C(C#Cc1ccccc1)C1=C(O)CCCC1=O	99
O=C(COC(=O)c1ccccc1Nc1ccccc1)c1ccccc1	100
CC1(C)C(C=C(Cl)Cl)C1C(=O)NC1CCS(=O)(=O)C1 (stereo unspecified)	103
CN(C(=O)COC(=O)Cc1ccc(Cl)cc1)C1CCCCC1	116
CNC(=O)C1CCCN(c2nn3c(=O)cc(C)nc3s2)C1 (stereo unspecified)	109
Cc1ccc(NC(=O)CCN2CCCCC2)cc1	105
CCCN=C(Nc1ccc(Cl)cc1)c1cccnc1	96
O=C(Oc1cccnc1I)c1cccc(C(F)(F)F)c1	105
Cc1ccc(-n2c(=O)c(C#N)cc3c(=O)n4ccccc4nc32)cc1	100
CCc1ccc(NS(=O)(=O)c2cccs2)cc1	88
O=C(COc1ccc2ccccc2c1)NCc1ccc2c(c1)OCO2	106
COc1ccc(N2C3=[N+](CCCCC3)CC2(O)c2ccccc2)cc1 (stereo unspecified)	108
Oc1ccc(-c2[nH]ncc2Oc2ccccc2)c(O)c1	98

Next section, starting with the last three of the part before.
SMILES	VACV E9 pol inh
O=C(COc1ccc2ccccc2c1)NCc1ccc2c(c1)OCO2	106
COc1ccc(N2C3=[N+](CCCCC3)CC2(O)c2ccccc2)cc1 (stereo unspecified)	108
Oc1ccc(-c2[nH]ncc2Oc2ccccc2)c(O)c1	98
CC1CCC(C(C)C)C(OC(=O)Cn2c[n+](C)c3ccccc32)C1 (stereo unspecified)	101
O=C(O)c1cccc(N2CCCC2=O)c1	101
COc1ccc2c(c1)sc(=NC(=O)C1COc3ccccc3O1)n2C (stereo unspecified)	99
O=C(Nc1ccccc1N1CCCC1)c1cccs1	97
Cc1c(C(=O)NC(=S)Nc2ccc(N3CCOCC3)cc2)oc2ccccc12	100
O=C(c1ccc(Cl)c(Cl)c1)N(c1ccccn1)c1ccccn1	92
Cc1nc(N2CCC(C)CC2)c2c(C)c(C(=O)N3CCN(c4ccc(F)cc4)CC3)sc2n1	104
O=C(O)c1c(Cl)nc2ccccn12	106
O=C(CNc1cccc(Oc2ccccc2)c1)N1CCc2ccccc21	104
Oc1cc(Cc2ccccc2)cnc1CN1CCOCC1	90
CC1(C)CC(NC(=O)COc2ccc(Cl)cc2Cl)CC(C)(C)N1	100
O=C(NCc1cccnc1)c1cccc2ccccc12	82
CC1=NN(c2ccc(S(N)(=O)=O)cc2)C(=O)/C1=C\C=C/c1ccccc1	100
O=C(NC1CCS(=O)(=O)C1)c1ccc(C(=O)c2ccccc2)cc1 (stereo unspecified)	105
O=C(Nc1ccccc1)OCC1(c2ccccc2)C(=O)c2ccccc2C1=O	100
CCOC(=O)CC1=Nn2c(nnc2-c2cccs2)SC1	93
CN(C)c1ccc(C(=O)OCC(=O)NC2CC2)cc1	107
O=C(Nc1ccncc1)c1ccccc1O	92
N#Cc1ccc(OCC(=O)NCCCn2ccnc2)cc1	105
COc1ccc(C(=O)CSc2nc(-c3ccco3)nc3c2c(=O)n(C)c(=O)n3C)cc1	96
COc1ccc(-c2n[nH]c3c2C(c2ccccc2)N(c2ccccc2)C3=O)cc1 (stereo unspecified)	102
O=C(C1=C(O)/C(=C/c2ccccc2)CCC1)C(F)(F)F	101
COC(=O)C1C(=O)c2c([nH]c(C(=O)OC(C)C)c2C)CC1C (stereo unspecified)	98
CCOC(=O)c1c(C)nn(Cc2cccc(Cl)c2)c1N	100
O=C(Oc1ccc(C=Nc2cccc(Br)c2)cc1)c1ccncc1	100
CCN(c1ccccc1)c1nc2ccsc2c(=O)s1	91
CCN(CC)CCCC(C)Nc1ccnc2cc(Cl)ccc12 (stereo unspecified)	100
Cc1nnc(SCC(=O)O)s1	100
O=C(O)c1ccc(OC(F)(F)F)cc1	94
COc1cccc(C2CC(=O)Nc3sc4c(C)c(C#N)c(N)nc4c32)c1 (stereo unspecified)	129
CC1(C)C=C(NCC2CCCO2)CC(=O)C1 (stereo unspecified)	100
CC1(C)CC(=O)C2=C(C1)OC(N)=C(C#N)C21CCN(Cc2ccccc2)CC1	100
O=C(Cn1cnc2sc(-c3ccccc3)cc2c1=O)c1ccccc1	84
O=c1c2ccccc2n2c(-c3ccccc3)nnc2n1CCc1ccccc1	104
CCc1cc2c(=O)c(-c3nc4ccccc4[nH]3)c(C)oc2cc1O	97
Cc1nc2ccccc2c(=O)n1-c1ccc(Cl)cc1	107
CN(C)/C=C/c1ncc(C(F)(F)F)cc1Cl	103
CCOC(=O)c1nnn(-c2nonc2N)c1-c1cccc2ccccc12	102
COc1cccc(NC(=O)CSc2nc3c([nH]c4ccccc43)c(=O)n2C)c1	98
CCOC(=O)[C@H]1NC(=O)C[C@H]1c1ccccc1	96
c1ccc(CN2CCOCCN(Cc3ccccc3)CCOCC2)cc1	99

Bioassay records: PubChem BioAssay, ICCB-Longwood Screening Facility, Harvard Medical School
